# Assay outcomes (PubChem)
# KCNQ2 inh: KCNQ2 channel blockers in CHO-K1 cells – cell-based, FluxOR thallium flux, B-score, primary screen (AID 2156); O88943; 20 min; stronger effect = lower value; only compounds with negative scores are shown here; some inactives read as strong as hits; B-score at 10 µM; 1.1% of 310,000 active;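 active means fluorescence ratio B-score at most minus 3 library SDs, with starting brightness B-score within 2 library SDs, cut at about -5.5 in these data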
# Target sequence (O88943 whole entry, looked up): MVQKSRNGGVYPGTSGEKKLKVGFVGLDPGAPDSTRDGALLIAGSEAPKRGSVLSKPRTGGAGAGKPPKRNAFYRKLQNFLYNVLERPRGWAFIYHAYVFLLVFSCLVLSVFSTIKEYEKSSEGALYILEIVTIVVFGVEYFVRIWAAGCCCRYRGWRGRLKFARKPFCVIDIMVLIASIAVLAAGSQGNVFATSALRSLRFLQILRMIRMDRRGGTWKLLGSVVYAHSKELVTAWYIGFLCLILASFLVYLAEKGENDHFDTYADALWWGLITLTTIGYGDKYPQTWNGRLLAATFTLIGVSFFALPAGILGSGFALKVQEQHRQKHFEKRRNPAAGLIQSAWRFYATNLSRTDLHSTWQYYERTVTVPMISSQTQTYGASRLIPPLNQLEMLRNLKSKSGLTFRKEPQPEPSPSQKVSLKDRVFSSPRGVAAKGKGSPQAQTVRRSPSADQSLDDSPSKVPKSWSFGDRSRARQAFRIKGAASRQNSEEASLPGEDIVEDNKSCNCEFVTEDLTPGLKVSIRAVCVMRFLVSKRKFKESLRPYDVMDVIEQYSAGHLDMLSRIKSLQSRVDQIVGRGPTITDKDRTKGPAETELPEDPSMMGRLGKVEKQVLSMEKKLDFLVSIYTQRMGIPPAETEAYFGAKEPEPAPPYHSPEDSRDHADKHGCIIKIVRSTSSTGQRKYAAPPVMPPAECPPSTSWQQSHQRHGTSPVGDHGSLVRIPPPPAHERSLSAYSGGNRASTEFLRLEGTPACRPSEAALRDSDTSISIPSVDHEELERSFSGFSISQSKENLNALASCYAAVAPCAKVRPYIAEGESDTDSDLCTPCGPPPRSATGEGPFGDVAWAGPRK
# KCNQ2 inh baseline: further read-out of KCNQ2 inh, marked with its call; B-score; measured here: initial fluorescence intensity artifact check;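 brightness before thallium and not channel activity; 0 = typical well and far values either way flag optical interference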
# Active calls of the source: *; i = inactive. Not all compounds are listed. The share of hits here may be higher or lower than overall.
KCNQ2 inh baseline | KCNQ2 inh | SMILES
-0.9 | i | O=C(O)CSCC(=O)N1CCc2c([nH]c3ccccc23)C1C(F)(F)F (stereo not drawn)
0.83 | i | COc1cc(Cl)ccc1OCc1cc(C(=O)N(C)CCc2cnn(C)c2)no1
0.86 | i | CCOc1ccc(C(C)=O)cc1N1C(=O)C2C3C=CC(C3=C(C)C)C2C1=O (stereo not drawn)
-1.3 | i | CCOc1ccc(-c2nnc(SCC(=O)O)n2Cc2ccccc2)cc1
0.56 | i | COC(=O)C1=C(C)N(Cc2ccccc2)C(=O)N[C@H]1c1ccccc1
-0.5 | i | CCC1CCCCN1S(=O)(=O)c1ccc(-n2cnnn2)c(C)c1 (stereo not drawn)
-0.05 | i | COc1ccc(CN2C(=O)CN(C3CCCCCC3)C(=O)C2c2ccc(F)cc2)cc1 (stereo not drawn)
0.04 | i | O=C1CSC(c2cn(-c3ccccc3)nc2-c2cccs2)N1Cc1ccccc1 (stereo not drawn)
0.93 | i | N#CCC(CNc1ncc(C(F)(F)F)cc1Cl)OC(=O)c1cccc([N+](=O)[O-])c1 (stereo not drawn)
2.2 | i | S=c1[nH]nc(-c2ccco2)n1-c1cccc2ccccc12
-0.14 | i | COc1c(C)cc(C(=O)C2CCCN(C(=O)C3=C(C)OCCO3)C2)cc1C (stereo not drawn)
-0.17 | i | Cn1c(=O)c2c(nc(SCCN3CCCCC3)n2C)n(C)c1=O
-0.03 | i | CCS(=O)(=O)c1nc(S(=O)(=O)c2ccc(C)cc2)c(N2CCN(CCO)CC2)s1
-0.75 | i | CC1CCN(S(=O)(=O)N2CCC(C(=O)NCc3cccs3)CC2)CC1
0.78 | i | CCN(CC)c1ccc2c(c1)oc(=O)c1c(Cl)cc(=O)oc12
0.95 | i | CCc1nnc(NC(=O)CSc2nc3cccnc3n2C2CCCCC2)s1
-0.83 | i | Cc1cccc2nc(-c3ccco3)oc(=O)c12
-0.27 | i | COC(=O)c1ccc([C@@H]2C[C@H]3CN(Cc4cccnc4)C(=O)[C@]34CCCN24)cc1
-1.3 | i | CCOc1cc(CNc2ccc(N3CCCCC3)cc2)cc(Br)c1OCC(=O)NC(C)(C)C
0.01 | i | CC1CCN(c2ccc3nnc(CCC(=O)Nc4ccc(F)cc4)n3n2)CC1
0.86 | i | CCc1ccc(/C=C(\Cl)c2nc3cc(Cl)ccc3c(=O)[nH]2)cc1
-2.1 | i | O=C(NCc1ccc(Cl)cc1)c1n[nH]c([N+](=O)[O-])c1Cl
0.27 | i | Cn1nnnc1SCC(=O)c1ccc(Br)s1
0.34 | i | COCCCNc1nc2ccccc2[nH]c1=O
-0.14 | i | C=Cc1ccc(COC(=O)c2cn(CC)c3nc(C)ccc3c2=O)cc1
0.01 | i | CCOC(=O)c1sc(NC(=O)C2CC(=O)N(c3ccc(OC)cc3)C2)nc1C (stereo not drawn)
1.7 | i | NS(=O)(=O)c1ccc(NC(=O)Cc2c(F)cccc2Cl)cc1
0.94 | i | Cc1ccc(OC(=O)c2cccc(S(=O)(=O)N3CCCC3)c2)c(-n2nc3ccccc3n2)c1
0.11 | i | COc1cccc(Nc2c([N+](=O)[O-])cncc2[N+](=O)[O-])c1
1.4 | i | CC1=C(CC(=O)O)c2cc(F)ccc2/C1=C\c1ccc(S(C)=O)cc1 (stereo not drawn)
1.6 | i | Clc1ccc(-c2nnc3n2CCCCS3)cc1
0.8 | i | CC[C@H](C)[C@H](NC(=O)CNC(=O)COc1cc2c(c3oc(=O)cc(C)c13)CCC(C)(C)O2)C(=O)O
0.64 | i | CC(=O)NCCn1c(SCC#N)nc2ccccc2c1=O
-0.54 | i | COc1ccccc1CNC(=O)CN1CCN(Cc2ccc(Cl)cc2)C1=O
-0.92 | i | Oc1ccc(CCc2n[nH]c(=S)n2-c2ccc(F)cc2)cc1
1.2 | i | COC(=O)c1ccc(NS(=O)(=O)c2cccc3cccnc23)cc1
-0.98 | i | O=C(NCC1CCCO1)c1cc(-c2ccccc2F)no1 (stereo not drawn)
0.27 | i | COc1ccc(CNC(=O)c2noc(C(C)C)c2[N+](=O)[O-])cc1
1.1 | i | COC(=O)C1=C(C)NC(C)=C(C(=O)OC)C1c1ccccc1[N+](=O)[O-]
0.32 | i | Nc1nc(-c2ccc(Br)cc2)c(S(=O)(=O)c2ccccc2)s1
0.11 | i | COc1cc(CNCCN2CCOCC2)ccc1OCc1ccc(Cl)cc1Cl
3.2 | i | S=C(NCc1ccccc1)NNc1ccccc1
2.6 | i | Cc1ccc(C(=O)Nc2ccc(C(=O)/C=C/c3cccs3)cc2)cc1
-1 | i | CCOC(=O)Cn1cc(/C=N/N2C(=O)C3C4C=CC(C4)C3C2=O)c2ccccc21 (stereo not drawn)
0.63 | i | CN(Cc1ccccc1)C(=O)c1nc2ccccn2c1CNCCn1cccn1
0.94 | i | CCN(CC)CCCNC(=O)c1ccc2c(SCC(=O)O)c3c(nc2c1)CCC3
2 | i | COc1ccc(NC(=S)NNC(=O)c2nnn(-c3ccccc3)c2C)cc1
-0.28 | i | O=C(NCc1ccccc1)C(c1ccc(F)cc1)N(C(=O)c1csnn1)c1ccccc1 (stereo not drawn)
0.04 | i | CCOc1cc(C)c(C(C)C)cc1S(=O)(=O)N1CCOCC1
0.7 | i | O=C(CNC(=O)c1cccs1)OCc1ccc(Br)cc1

# 2 entries from above in a different format.
SMILES	KCNQ2 inh baseline	KCNQ2 inh
S=C(NCc1ccccc1)NNc1ccccc1	3.2	i
CCOc1cc(C)c(C(C)C)cc1S(=O)(=O)N1CCOCC1	0.04	i

# Gathered by group, the entries above with a furan ring, fused or not.
KCNQ2 inh baseline | KCNQ2 inh | SMILES
2.2 | i | S=c1[nH]nc(-c2ccco2)n1-c1cccc2ccccc12
-0.83 | i | Cc1cccc2nc(-c3ccco3)oc(=O)c12

# New compounds follow.
KCNQ2 inh baseline | KCNQ2 inh | SMILES
0.89 | i | Nc1ccc2c(c1)C(=O)N(CCCC(=O)O)C2=O
0.11 | i | Cc1c(C(=O)NC(C)C)c(-c2ccccc2)nn1-c1ccccc1
0.15 | i | Cc1cccn2c(=O)c(/C=C(\C#N)C(=O)NCc3ccco3)c(N3CCCC(C)C3)nc12 (stereo not drawn)
0.8 | i | COc1cc(-c2cc(C(=O)Nc3nc4ccccc4s3)c3ccccc3n2)cc(OC)c1OC
0.54 | i | Cc1c(C(=O)NCc2ccccc2F)oc2ccccc12
0.08* | -5.8* | CCN(CC)S(=O)(=O)c1cc(NC(=O)CN2C(=O)NC3(CCCc4ccccc43)C2=O)ccc1C (stereo not drawn)
0.42 | i | Cc1sc(NC(=O)c2ccccc2)c(C(=O)c2ccccc2)c1C
2.5 | i | CC(=O)NC(CCS(C)(=O)=O)C(=O)Nc1ccc(C)c(F)c1 (stereo not drawn)
0.89 | i | O=C(COc1ccc(Cl)cc1)NN=C1CCCCCCC1
-0.67 | i | Cc1ccc([N+](=O)[O-])cc1NCC(=O)NN

# Another view of part of the listing above:
structure: COc1ccc(NC(=S)NNC(=O)c2nnn(-c3ccccc3)c2C)cc1
- KCNQ2 inh baseline: 2
- KCNQ2 inh: i
structure: COc1cc(-c2cc(C(=O)Nc3nc4ccccc4s3)c3ccccc3n2)cc(OC)c1OC
- KCNQ2 inh baseline: 0.8
- KCNQ2 inh: i

# Later entries:
KCNQ2 inh baseline | KCNQ2 inh | SMILES
0.27 | i | CCCC[C@@H]1CNC(=O)C(=O)N1CC(C)(C)C
-0.07 | i | CCOC(=O)c1cnc(COc2ccccc2Cl)[nH]c1=O
-1.1 | i | CCc1ccc(N2CSC3=C(C#N)C(c4cccs4)CC(=O)N3C2)cc1 (stereo not drawn)
0.77 | i | CCCC(C(=O)NC1CCCC1)N(Cc1ccc(OC)cc1)C(=O)c1snc(C(N)=O)c1N (stereo not drawn)
0.49 | i | CC1(C)CC(=O)C2=C(C1)N1C(=C(C#N)C2c2ccccc2Cl)N=C(N)c2ccccc21 (stereo not drawn)
-1 | i | N#Cc1c(N)nc2c(c1-c1ccccc1)CCC2
0.05 | i | O=C(Nc1ccc(-c2cc3ccccc3oc2=O)c(Cl)c1)c1cccnc1
-0.93 | i | CC(=O)C12C3C4C(C5C1C3C5(Br)C41OCCO1)C21OCCO1 (stereo not drawn)
-0.08 | i | CN(C)C(=O)c1cc(C(=O)c2ccc(F)cc2Cl)c[nH]1
-0.08 | i | COC(=O)CSc1nc2ncc(Cl)cc2[nH]1

# Quoted from the entries so far for reference:
KCNQ2 inh baseline | KCNQ2 inh | SMILES
0.27 | i | CCCC[C@@H]1CNC(=O)C(=O)N1CC(C)(C)C
-0.07 | i | CCOC(=O)c1cnc(COc2ccccc2Cl)[nH]c1=O
-1.1 | i | CCc1ccc(N2CSC3=C(C#N)C(c4cccs4)CC(=O)N3C2)cc1 (stereo not drawn)
0.77 | i | CCCC(C(=O)NC1CCCC1)N(Cc1ccc(OC)cc1)C(=O)c1snc(C(N)=O)c1N (stereo not drawn)
0.49 | i | CC1(C)CC(=O)C2=C(C1)N1C(=C(C#N)C2c2ccccc2Cl)N=C(N)c2ccccc21 (stereo not drawn)
-1 | i | N#Cc1c(N)nc2c(c1-c1ccccc1)CCC2
0.05 | i | O=C(Nc1ccc(-c2cc3ccccc3oc2=O)c(Cl)c1)c1cccnc1

# The list goes on.
KCNQ2 inh baseline | KCNQ2 inh | SMILES
-0.13 | i | Cc1cccc(Nc2nnc(SCc3cc(=O)n4cc(C)ccc4n3)s2)c1
0.02 | i | COc1cc(NC(=O)[C@H]2CSCN2C(=O)[C@@H]2CCC(=O)N2)cc(OC)c1OC
-1.5 | i | COc1cccc(N2CCN(c3ccc4nnc(CCC(=O)N5CCC(C)CC5)n4n3)CC2)c1
0.46 | i | NC(=O)C1CCN(C(=O)CCSCc2ccccc2)CC1
-0.02 | i | CCCCC(=O)Nc1ccc(C(=O)Nc2ccc3c(c2)OCO3)cc1
-0.19 | i | C/C(CC(=O)Nc1cc(C)ccn1)=N\NC(=O)c1ccc(C(C)(C)C)cc1
0.18 | i | CC(CCc1ccccc1)NC(=O)CN(C)Cc1ccc(F)cc1 (stereo not drawn)
4.9 | i | CCOC(=O)C1CCCN(C2=NC(=O)/C(=C/c3ccc(OC)cc3)S2)C1 (stereo not drawn)
-0.15 | i | O=C(CCn1cccc1)NCc1ccc(Cl)cc1
0.76 | i | O=C(CCS(=O)(=O)c1ccc(Br)s1)NCc1cccs1
1.5 | i | COc1ccc(CCn2c(N)c(C(=O)NCc3ccco3)c3nc4ccccc4nc32)cc1
0.9 | i | CCCCN(CCCC)C(=O)CCS(=O)(=O)c1ccc2c(c1)n(C)c(=O)c(=O)n2C
1.3 | i | O=C(O)Cn1c2c(c3ccccc31)CSc1ccc(Cl)cc1-2
-0.73 | i | O=C(C1CC1)N1CCN=C1SCc1cccc(C(F)(F)F)c1
0.14 | i | Cc1cccc(NS(=O)(=O)c2ccc(C(=O)NCCCN3CCOCC3)cc2)c1C
0.03 | i | CC(C)C(C)NC(=O)CN1C(=O)NC2(CCCCCC2)C1=O (stereo not drawn)
0.37 | i | CCOC(=O)c1c(-c2ccc(OC)cc2)oc2cc(Br)c(O)cc12
-2.2 | i | Cc1cc2nc(-c3ccc(SCc4ccccc4C#N)nc3)[nH]c2cc1C
0.49 | i | CCCNC(=O)c1c(N)n(-c2ccc(S(N)(=O)=O)cc2)c2nc3ccccc3nc12
0.54 | i | CC1CC(C)(C)CC2(C1)NC(=O)N(CC(=O)NCC(c1ccco1)N1CCCCC1)C2=O (stereo not drawn)
0.06 | i | CCCCCCCCN1[C@@H](CC(=O)OC)c2cc(C(F)(F)F)ccc2S1(=O)=O
1.6 | i | COc1ccccc1-n1c(SCC(=O)Nc2nnc(C)s2)nc2c(c1=O)SCC2
-2.1 | i | CC1=C(C(=O)Nc2cccc(C)c2C)C(c2cccs2)NC(=S)N1 (stereo not drawn)
0.04 | i | O=C(Nc1ccc(-c2ccc3nncn3n2)cc1)c1ccc(Br)o1
12 | i | COC(=O)[C@@]12CCCCN1[C@H](c1ccc(-c3cccc(Cl)c3)cc1)[C@H]1C(=O)N(C)C(=O)[C@H]12
0.48 | i | Cc1ccccc1OCC(=O)N/N=C/c1ccncc1
1.5 | i | Cc1ccc(CC2C(=O)N(c3ncccn3)C(=O)C2C)cc1 (stereo not drawn)
-0.82 | i | c1ccc2c(c1)OCC(CNCC1COc3ccccc3O1)O2 (stereo not drawn)
-0.13 | i | Cc1ccccc1C1NC(=S)NC2=C1C(=O)CCC2 (stereo not drawn)
0.54 | i | CCC(=O)Nc1ccc(C(=O)Cn2ncc(Cl)c(Cl)c2=O)cc1
0.08 | i | Cc1cc(NC(=O)c2cc(Cl)ccc2Cl)no1
0.57 | i | CC(CC1CC(C)(C)OC1=O)C(=O)Nc1nncs1 (stereo not drawn)
0.21 | i | Cc1cc(C)n(-c2nc(C)nc3c2cnn3-c2ccccc2)n1
0.09 | i | CC(C)(C)C1=NN(C(=O)c2ccccc2)C(O)(C(C)(C)C)C1 (stereo not drawn)
-0.3 | i | Fc1cccc(Cl)c1CSc1ccc(-c2ccco2)nn1
1.1 | i | C=CCN(C(=O)c1csnn1)C(C(=O)NCc1ccc(F)cc1)c1ccccc1F (stereo not drawn)
-0.11 | i | COCCNC(=S)NNc1ccccc1[N+](=O)[O-]
1.4 | i | CCOC(=O)C1CCCN(Cc2nc(C3CC3)no2)C1 (stereo not drawn)
-1.1 | i | NC(=O)C1CCN(C(=O)CSCc2ccccc2Cl)CC1
-1.3* | -7* | Cn1cc(/C=C(\NC(=O)c2ccccc2Cl)C(=O)N2CCOCC2)c2ccccc21
-5.3 | i | O=c1[nH]ncn2cccc12
0.78 | i | CN(C)c1ccc(C2SCCN2C(=O)c2ccc([N+](=O)[O-])cc2)cc1 (stereo not drawn)
-0.16 | i | C=CCSc1cc(C)nc2c(-c3ccc(Cl)cc3)c(C)nn12
0.71 | i | COc1cc(OC)cc(C(=O)OCC(=O)Nc2ccc(N3CCCCC3)cc2)c1
2 | i | COc1ccc(Cc2c(O)nc(SCC(=O)NC(C)(C)C)[nH]c2=O)cc1
1 | i | O=C(Nc1ccncc1)c1cncc(Br)c1
0.56 | i | O=C(c1ccccc1)c1ccc(Oc2ccc(C(=O)O)c(C(=O)O)c2)cc1
-1.8 | i | CCCCNc1ncnc2c1cnn2-c1ccc(C)cc1C
1.3 | i | Cc1ccc(NC(=O)COC(=O)Cc2c(F)cccc2Cl)cc1S(=O)(=O)N1CCOCC1
